KSHV LANA nucl – LANA-nucleosome interaction inhibition; FITC-LANA1-23 / chicken nucleosome fluorescence polarization; stronger effect = lower value; z-score (test concentration not listed); 0.3% of 51,000 active; AID 720717;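 active means both repeat wells score below -2 in polarization z-score versus plate sample wells, excluding overly bright wells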;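 further: 100 nL library stock added to about 30 µL; numbers are from one replicate; some results filed as inactive read as strong as hits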
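Assay system: purified chicken nucleosomes with FITC-labelled LANA N-terminal peptide (1-23) / Probe or stimulus: 50 nM FITC-LANA1-23 probe / Compound dosing: pin-transferred compound, 100 nL / Times: compound with peptide–nucleosome mix 10–45 min at room temperature / Technique: fluorescence polarization, 480 nm excitation, 535 nm parallel and perpendicular emission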
BasE inh – blocks the Acinetobacter baumannii siderophore enzyme BasE; inhibition, % (concentration not given with the values); 0.1% of 84,000 active; purified BasE, fluorescence polarization binding displacement;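 active means both replicates above 25% with normal brightness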;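 further: 0% = negative plate control signal and 100% = positive plate control signal; stock transfer was 100 nL into about 30 µL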
Numbers without * were called inactive; · = no result given; & = joins results of further samples.

SMILES	KSHV LANA nucl	BasE inh
COc1cc(N)c(Cl)cc1C(=O)OCC(=O)Nc1ccc(N2CCOCC2)cc1	·	1.9
O=S(=O)(c1cccc2nsnc12)N1CCNCC1	0.5	0.7&-0.2
O=C(CNc1ccccc1C(=O)NCc1ccco1)Nc1ccc(N2CCOCC2)cc1	·	0.9
Cc1c(N2C(=O)CSC2=S)c(=O)n(-c2ccccc2)n1C	-0.0015	-0.1
COc1ccc2c(C)nc(N=C(N)N)nc2c1	-0.96	-2.6
Cc1ccc(NC(=O)CN2CCCC2c2cccn2C)cc1C (configuration not stated)	·	-3.3
NC(=O)CSc1ccc(-c2ccc3c(c2)OCO3)nn1	0.39	0.4
CCN(CC)CCn1c2ccccc2c2nc3cc(C(=O)O)ccc3nc21	·	-1.5
Cc1nc(C)c(C(=O)OCC(=O)N(C)C)s1	·	1.0
COC(=O)COc1ccc(S(=O)(=O)Nc2ccc(C(F)(F)F)cc2)cc1	-0.79	-0.6
Nc1ncn([C@@H]2O[C@H](CO)[C@@H](O)[C@H]2O)c(=O)n1	-0.28&0.34	0.4
O=C(Nc1ccc(-c2cn3c(n2)SCC3)cc1)c1ccco1	·	0.4
O=C(CC12CC3CC(CC(C3)C1)C2)NC1CCN(Cc2ccccc2)CC1	·	-1.4
Nc1ccc2oc(=O)ccc2c1	·	1.2
O=S1(=O)CCC(N(CC2CCCO2)S(=O)(=O)c2cccs2)C1 (configuration not stated)	·	-1.4
NNC(=O)CCN1CCN(c2ccccc2)CC1	·	-0.1
CN1CCN(Cc2nc3ccccc3c(=O)n2CC#N)CC1	·	-0.6
CCc1ccc(N(C(=O)c2ccco2)C(C(=O)NC2CCCC2)c2ccncc2)cc1 (configuration not stated)	-0.84	1.0
CCn1c(SC)nnc1C1CCN(CC(=O)Nc2ccccc2N2CCOCC2)CC1	-0.39	1.2
Cc1c(C(=O)N2CCN(c3ncccn3)CC2)oc2ccc(Cl)cc12	·	-1.3
O=C(NCC(c1ccco1)N1CCCCC1)Nc1ccc(Cl)c(Cl)c1 (configuration not stated)	·	2.0
CC1=CC(C)C(/C=N/N=C(N)N)C(C)C1 (configuration not stated)	-0.29	-1.0
CC1CCC(NC(=O)Cn2ncc3c2-c2ccccc2OC3)CC1 (configuration not stated)	-1.9	-0.1
CCS(=O)(=O)NCC(c1cccnc1)N1CCN(c2ccccc2)CC1 (configuration not stated)	-0.65	0.9
Fc1ccc(CNC(c2ccc(F)cc2)c2nnc(-c3ccccc3)o2)cc1 (configuration not stated)	-0.19	1.9

An excerpt from above in order of the KSHV LANA nucl value, lowest first:
compound,KSHV LANA nucl
Fc1ccc(CNC(c2ccc(F)cc2)c2nnc(-c3ccccc3)o2)cc1 (configuration not stated),-0.19
NC(=O)CSc1ccc(-c2ccc3c(c2)OCO3)nn1,0.39
O=S(=O)(c1cccc2nsnc12)N1CCNCC1,0.5

Carrying on.
SMILES	KSHV LANA nucl	BasE inh
CC/C(O)=C(\C#N)c1nc2ccccc2n1C	-0.29	-2.2
CC(C)CCNc1ncnc2onc(-c3ccc(Cl)cc3)c12	1.2	-1.1
Cc1ccc2oc(=O)c3cnn(CC(=O)N4CCCc5ccccc54)c3c2c1	0.34	1.9
N#Cc1c(-c2cccnc2)cc2c(c1N)c(=O)oc1ccccc12	-0.17	1.7
Cc1ccc2c(COC(=O)/C=C/c3ccc(Br)o3)cc(=O)oc2c1	·	3.7
CCn1nc(C)cc1C(=O)NN	·	1.1
NS(=O)(=O)c1ccc(N/C=C/C(=O)c2ccccc2)cc1	1.2	-0.5
COC(=O)c1ccccc1N=Cc1sc(=S)[nH]c1O	·	0.0
O=C(Cn1c(C(F)(F)F)nc2ccccc21)OCc1nnc(-c2ccc(Cl)cc2)o1	·	-0.7
O=S(=O)(Nc1nc2ccccc2nc1NCCC1=CCCCC1)c1ccccc1	·	0.8
CN=c1scc(-c2ccc(OC)cc2)n1/N=C/c1cc(Br)c(O)c(OC)c1	·	0.9
O=C1NCCCC1c1n[nH]c(=S)n1Cc1ccccc1 (configuration not stated)	0.72	0.7
Cc1cc(C(=O)Cn2cnc3ccsc3c2=O)c(C)n1CCc1ccc(F)cc1	·	-3.5
NS(=O)(=O)c1ccc(NC(=O)CCC(=O)c2ccc(F)cc2)cc1	·	-2.0
COc1ccc(CCN(C)c2nc(N)c3c(N)nc(SCC(=O)O)cc3c2C#N)cc1OC	·	14
O=C(CCC(=O)N1CCCCc2ccccc21)NC1CCCC1	-1	1.1
c1coc(-c2ccnc3nc(-n4cccc4)nn23)c1	-0.73	·
O=C1c2ccc(-c3ncc(-c4ccccc4)o3)cc2C(=O)N1c1ncn[nH]1	·	0.7
Cc1nc2ccccn2c1P(=O)(N1CCCCC1)N1CCCCC1	·	0.6
O=C(CSc1nc2c(c(=O)[nH]1)CSC2)c1ccc(Cl)cc1	·	0.1
CCOc1cc(S(=O)(=O)n2ccnc2)ccc1Br	-0.69	0.2
O=C(O)CCCN1C(=O)/C(=C2\SC(=S)N(CCCC(=O)O)C2=O)SC1=S	-0.8	1.1
c1cnc2sc3c(N4CCOCC4)ncnc3c2c1	-0.013	2.5
CCc1ccc(N2C(=O)CNC2=S)cc1	-1	-1.8
OCCNc1nc(N2CCOCC2)nc(N2CCOCC2)n1	-0.043	0.4

The results go on.
SMILES	KSHV LANA nucl	BasE inh
Cc1ccccc1OCCSc1nnc(-c2ccc3c(c2)OCO3)o1	·	-1.0
O=C(Nc1ccc(OC(F)(F)F)cc1)OCCc1csc2ccccc12	·	2.6
S=c1[nH]nc(CNc2ccc(I)cc2)n1-c1ccccc1	0.81	2.1
Cc1ccc2c(CN3CCN(C(=O)C4Cc5ccccc5CN4S(C)(=O)=O)CC3)cc(=O)oc2c1 (configuration not stated)	0.23	-1.9
CCOC(=O)c1oc2ccccc2c1CSc1nc2ccccc2n1CCC#N	·	0.2
CC(Oc1ccccc1)C(=O)NC1CCCCC1 (configuration not stated)	0.087	3.1
Cn1nc(C(=O)NCCc2ccc(F)cc2)c2ccccc2c1=O	·	1.6
CCOC(=O)c1c(-c2ccco2)csc1NC(=O)COC(=O)CCc1nc2ccccc2c(=O)[nH]1	·	-1.8
COCCn1cnc2c(sc3nc4c(cc32)COC(C)(C)C4)c1=O	-0.66	2.5
COc1cc(/C=C2\SC(=O)N(C)C2=O)ccc1OCC(=O)Nc1ccc(S(N)(=O)=O)cc1	·	-2.1
Cc1ccc(CSc2ncnc3c2oc2ccccc23)cc1	-0.096	-1.1
C=CCn1cnnc1SCc1nnc(-c2ccco2)o1	·	1.0
CCSc1nc2ccc(N)cc2s1	1.9	-2.6
Cc1nn(C)c(=O)c2ccccc12	-0.29	2.6
CCN1CCSc2ccc(C(=O)NCCN3CCOCC3)cc21	-0.4	1.8
O=C1CS(=O)(=O)N(Cc2ccccc2)c2ccsc21	0.34	-3.2
O=C(CS(=O)(=O)Nc1ccc(F)cc1Cl)Nc1ccc(F)cc1Cl	·	1.0
CC(C)(C)c1ccc2cc(C#N)c(C#N)cc2c1	·	-1.5
COc1cc2c(cc1NC(=O)C(C)Sc1nnc(C)c(=O)n1N)oc1ccccc12 (configuration not stated)	·	2.8
Cc1nc2ccccc2[nH]1	·	2.7
CC1=C(C(=O)Nc2ccc(C(=O)O)cc2)SCCO1	0.24	1.6
Cn1c(=O)c2c(nc(NC3CCCC3)n2C)n(C)c1=O	-0.049	-1.3
S=c1[nH]nc(-c2cccs2)n1CC1CCCO1 (configuration not stated)	·	0.7
FC(F)(F)c1cccc(OCc2nn[nH]n2)c1	0.6	0.8
CN1CC(=O)N(CCOc2ccccc2)C1=O	·	0.1

Of the compounds above, these contain a COOH group.
SMILES	KSHV LANA nucl	BasE inh
CCN(CC)CCn1c2ccccc2c2nc3cc(C(=O)O)ccc3nc21	·	-1.5
COc1ccc(CCN(C)c2nc(N)c3c(N)nc(SCC(=O)O)cc3c2C#N)cc1OC	·	14
O=C(O)CCCN1C(=O)/C(=C2\SC(=S)N(CCCC(=O)O)C2=O)SC1=S	-0.8	1.1
CC1=C(C(=O)Nc2ccc(C(=O)O)cc2)SCCO1	0.24	1.6

Further records
SMILES,KSHV LANA nucl,BasE inh
O=C(CSc1ccccc1)NCc1ccccc1,-0.86,3.5
S=c1[nH]nc(-c2ccncc2)n1C1CC1,·,-4.0
Cc1cccc2c(=O)c(NC(=O)NCC3CC3)c[nH]c12,-0.2,0.9
N#Cc1c(/N=C/c2ccco2)oc(-c2ccccc2)c1-c1ccccc1,0.21,3.4
O=C(O)C1C2C=CC(C2)C1C(=O)Nc1ccc(C(=O)N2CCCCC2)cc1 (configuration not stated),0.14,1.3
Cn1c(C(F)(F)F)nnc1S(=O)(=O)Cc1ccc(-c2csnn2)cc1,-0.84,0.2
COCCN1C(=O)/C(=C\N2CCN(c3ccc(OC)cc3)CC2)C(=O)NC1=S,·,1.9
CC1Cc2ccccc2N1C(=O)Cn1c(=O)cc(O)c2ccccc21 (configuration not stated),·,0.8
N#CCCn1[nH]c(=O)ccc1=O,-0.21,-2.3
Cc1c(O)ccc2c(CN(C)CC3COc4ccccc4O3)cc(=O)oc12 (configuration not stated),·,0.7
COc1ccnc(N2CCN(C(=O)OC(C)(C)C)CC2)n1,·,-1.4
O=C(Cn1ncn2c(cc3sccc32)c1=O)NC1CCCc2ccccc21 (configuration not stated),0.11,-1.9
CNC(=O)CNC(=O)Nc1ccccc1OC,·,-1.0
COc1ccc2[nH]cc(/C=C(/C#N)S(=O)(=O)c3ccccc3)c2c1,1.2,·
CC(=O)N1CCc2cc(Br)cc(S(=O)(=O)NN3CCN(c4ccc(F)cc4)CC3)c21,0.1,-2.0
O=C(NCCc1nc2ccccc2[nH]1)c1ccc(Cl)c(Cl)c1,·,-1.4
CCCNC(=O)N1CCN(c2cccc(C(F)(F)F)c2)CC1,0.84,0.1
Cc1ccc(S(=O)(=O)CCSCc2csc3ccccc23)cc1,·,0.6
CCN(CC)C(=O)Oc1ccc(Cl)c2cccnc12,0.07,0.1
N#C/C(=C\c1ccc2c(c1)OCCO2)C(N)=S,·,0.9

(continued)
SMILES,KSHV LANA nucl,BasE inh
O=C(COC(=O)CN1C(=O)C2CC=CCC2C1=O)Nc1ccc2c(c1)OCO2 (configuration not stated),·,2.0
COc1cccc(C(=O)c2cc3ccc(O)cc3oc2=O)c1,-0.58,1.0
O=C(CSc1ccccc1F)NCC(c1cccs1)N1CCOCC1 (configuration not stated),·,1.5
C=CCn1c(C)cc(C(C)(C)c2cc(C)n(CC=C)c2C)c1C,·,42
S=c1[nH]nc(CN2CCCC2)o1,·,2.6
Cn1cccc1/C=C1\C(=O)NC(=S)N(c2ccccc2)C1=O,·,23
NC(=O)CCSCc1ccc(Cl)c(Cl)c1,-1.4,0.4
Cc1ccc(S(=O)(=O)NNC(=S)NCC2CCCO2)cc1 (configuration not stated),-0.22,-1.0
Cc1ccc(NC(=O)CN(c2nccs2)S(=O)(=O)c2ccccc2)cc1,·,3.4
O=C1ON(c2ccccc2)C(c2ccc3c(c2)OCO3)N1c1ccccc1 (configuration not stated),-0.39,2.3
CCOc1ccccc1NC(=O)COC,0.54,-0.3
Cc1cc2c(cc1S(=O)(=O)N1CCc3ccccc3C1)n(C)c(=O)c(=O)n2C,0.75,-1.5
O=C(NCCc1cn2ccccc2n1)c1cccs1,0.57,1.2
O=C(Nc1ccccn1)c1cccs1,-0.65,2.1
Fc1ccc(CNCc2ccccc2)cc1,-0.37,-1.4
Cc1ccc(NC2(c3nnnn3CCOC(=O)Nc3ccc(Cl)cc3)CCCCC2)cc1,·,2.0
Cc1cc(/C=N/N2CCN(C)CC2)cc(C)c1O,0.33,-0.5
CCC(CC)c1nc2ccccc2c(=O)[nH]1,0.28,-6.5
O=C(c1ccc(=O)[nH]c1)N1CCCCCC1,·,1.6
N#Cc1c(-c2ccccc2)c(-c2ccccc2)n[nH]c1=S,·,0.0

Continued:
SMILES,KSHV LANA nucl,BasE inh
COc1ccccc1N1CCN(CCCCOc2ccc(F)cc2)CC1,-0.49,0.1
CCN(c1ccccc1)S(=O)(=O)c1cccc(C(=O)O)c1,·,-0.7
ON=Cc1cccn1-c1ccccc1,-0.42,3.8
Cc1nnc(Sc2nc(Nc3ccccc3)nc(Nc3ccccc3)n2)s1,·,0.8
COc1ccc(Cc2nc3ccc(S(=O)(=O)N4CCOCC4)cc3[nH]2)cc1,·,-2.8
c1ccc(Oc2ncnc3sccc23)cc1,·,-1.8
CN(C)C(=O)CN(c1ccccc1)S(=O)(=O)c1ccccc1,0.42,-0.3
CCOC(=O)C1CCCN(Cc2cc(=O)n3ccsc3n2)C1 (configuration not stated),·,3.8
CCOC(=O)c1c[nH]c2cc3c(cc2c1=O)OCCO3,-1,2.2
FC(F)(F)Oc1ccc(C2c3ccsc3CCN2Cc2nc3ccccc3s2)cc1 (configuration not stated),-0.72,·
CCc1nn(-c2ccccc2)c2nc(-c3ccccc3O)c3cc(OC)c(OC)cc3c12,·,-0.4
CCc1cc(C(=O)O)c(SSc2sc(CC)cc2C(=O)O)s1,-0.12,0.8

Screens (PubChem)

Some of the compounds tested; count on the stated rates, not on these rows.
